NPYLR7 ag: activates Aedes aegypti NPYLR7 receptor. AID 1259423. 0.15% of 270,000 active. HEK293T NPYLR7/Galpha15, GCaMP6s calcium fluorescence. activation, % at 10 µM; in the data active means activation above about 40%;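 further: 0% = vehicle and 100% = reference agonist at the receptor; some compounds past the cut are filed as inactive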
NPYLR7 ag max-min: second read-out of NPYLR7 ag, no call of its own (marks repeat the call); activation, %; measured here: Max-Min RFU normalised activation; some inactives read as strong as hits;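 span of the calcium signal over five minutes; 0% = vehicle and 100% = native peptide agonist; compound fluorescence can raise it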
* = called active by the depositor; & = joins results of further samples. Only part of the results is shown; count on the stated rates, not on these rows.

Compound,NPYLR7 ag,NPYLR7 ag max-min
N#CC1C(=N)Oc2n[nH]c(-c3cccs3)c2C1c1ccco1 (stereo not drawn),8.3,5.0
CCc1ccc(/C=N\NC(=O)CSc2nnc(-c3ccc(Cl)cc3)n2-c2ccccc2)cc1,10.3,7.7
CCCC(=O)N1CCC1(C)C(=O)Nc1cccc2cccnc12 (stereo not drawn),5.8,4.5
CC(C)CN1CC(C(=O)NC2CCc3ccccc32)CC1=O (stereo not drawn),12.7,4.6
Cn1nnc2c(Nc3cccc4ccccc34)ncnc21,7.5,-0.6
O=c1[nH]c(C(F)(F)F)nc2nc[nH]c12,-3.1,2.6
COCCNC(=O)c1coc(CN(CCc2c[nH]c3ccccc23)Cc2ccc3c(c2)OCO3)n1,1.9,6.8
O=C(Nc1ccccc1)C1CC(=O)N(CCc2ccccc2)C(=Nc2cc(Cl)cc(Cl)c2)S1 (stereo not drawn),-10.4,-11.9
Cc1nnc(SCC(=O)N2CCN(c3ccccc3)CC2)c2c1cnn2-c1ccccc1,-13.5,-17.7
COCCN(Cc1c(-c2ccccc2)noc1N1CCN(C)CC1)C(=O)NC(C)C,4.1,8.5
Cc1ccc(OCC(=O)N2CCN(c3ccc(O)cc3)CC2)cc1C,-8.1,-8.1
CCOc1cc(/C=C2\N=C(c3ccccc3F)OC2=O)ccc1OC(C)=O,12.0,13.8
Nc1ncc(CN2CCN(c3cc(N4CCCCC4)ncn3)CC2)cn1,1.2,2.9
Fc1ccc(Oc2cc(N3CCc4ccccc4C3)ncn2)cc1F,-12.4,-10.5
C=C(Cl)CS(=O)(=O)Cc1ccccc1Oc1ccccc1,3.4,0.5
Cc1nc(Cl)cc(-c2ccccc2)n1,-17.1,-24.9
COc1ccc(-c2cnc3ncnn3c2N2CCN(Cc3c(F)cccc3Cl)CC2)cc1OC,11.2,3.7
Cc1ccc(-n2nnc3c(SCC(=O)N4CCC(C)CC4)ncnc32)cc1,6.6,12.3
COc1ccc(CCNc2ccc3nnc(CCNC(=O)c4ccc(C)cc4)n3n2)cc1OC,-11.5,-15.1
CCC(=O)N1N=C(c2ccccc2O)CC1c1ccco1 (stereo not drawn),-1.0,-0.5
CN(C)CC(C)(C)CNc1ncnc2sccc12,-4.4,-1.5
Cc1ccc(CN(CCc2c[nH]c3ccccc23)C(=O)CN(C(=O)c2ccc(Br)cc2)C2CC2)cc1,28.2,33.0
COC(=O)CC(=O)NC1CCN(c2ccccc2C(=O)NCc2ccccc2F)CC1,-2.0,2.2
CCc1nc2c(OCc3cc(Cl)cc(Cl)c3)cccn2c1N(C)C(=O)c1ccco1,16.8,3.0
COCCCN(Cc1nc(C(=O)OC)cs1)C(=O)Nc1cccc(OC)c1,-2.8,-2.1
CCn1c(C)nc2cc(S(=O)(=O)C(F)(F)F)ccc21,5.4,12.3
O=C(CN1C(=O)SC(=Cc2cccs2)C1=O)NC1CCCCCC1,-2.1,-4.3
Cc1oc(C)c(C(=O)NC2COc3ccccc3C2)c1C (stereo not drawn),2.3,2.7
Cc1cc(C)n(-c2nc(-c3ccccc3)cc(=O)n2CC(=O)Nc2ccc3c(c2)OCO3)n1,-1.5,4.4
O=C(CN1CCN(c2ccnc3cc(Cl)ccc23)CC1)NC1CC1,-2.9,-0.4
Cc1cc(C)n(CC(C)NCC2(c3cccc(F)c3)CCOCC2)n1 (stereo not drawn),6.3,5.5
Cc1ccc(C(=O)N2CC(=O)Nc3ccc(F)cc3C2c2ccc(F)cc2)cc1[N+](=O)[O-] (stereo not drawn),-3.2,-5.8
CC(=O)Nc1ccc(SCC(=O)Nc2ccc(C)c(Cl)c2)nn1,-0.1,-0.3
COc1cccc(CN2CCC(CNC(=O)CC(F)(F)F)C2)c1 (stereo not drawn),27.4,11.2
COCCNC(=O)[C@@]1(OCc2ccccc2C#N)CC(OCc2cccc(OC(F)(F)F)c2)[C@H](O)[C@H](O)C1 (stereo partly drawn),5.7,15.9
O=c1c2c(nc3c(-c4ccccc4)c(Cc4ccccc4)[nH]n13)CCC2,-17.1,-21.5
O=[N+]([O-])c1cc(O)c2cc(-c3ccccc3)[nH]c2c1,2.1,0.8
COCCn1c(=NC(=O)c2ccc(S(C)(=O)=O)cc2)sc2cccc(F)c21,2.3,-1.4
Cc1ccccc1C(CC(=O)N1CCc2[nH]ncc2C1)c1ccccc1 (stereo not drawn),20.7,15.4
CCCCc1ccc(C(=O)Nc2ccc(N3CCCC3)c(C(=O)NC(C)C)c2)cc1,6.1,3.1
COc1cccc(CC2CN(C(=O)c3cc(=O)c4ccccc4[nH]3)CCO2)c1 (stereo not drawn),-5.5,-7.4
Cc1ccc(C(=O)NCC(=O)N2CCCCCC2c2ccncc2)s1 (stereo not drawn),7.5,7.1
COCc1cc(N2CCCC2)nc(SCc2ccc(C(=O)NCCc3ccccn3)cc2)n1,14.1,17.0
O=C(NCCCN1CCOCC1)c1csc(CSc2nnc(-c3ccco3)n2-c2cc(Cl)ccc2Cl)n1,10.4,9.6
COC(=O)N1C[C@H](Oc2ccccn2)[C@H]2C[C@@H]1CC[C@H]2OC,23.5,31.8
COc1ccc(CN(C(=O)c2ccccc2OC)C(C)c2ccccc2)cc1OCc1nc(CO)cs1 (stereo not drawn),13.7,16.2
C=CCNC(=O)C(NC(=O)c1cccc(C)c1)C1CCN(S(=O)(=O)c2ccc(Cl)cc2)CC1 (stereo not drawn),-3.6,5.7
Cc1noc(C(C)C)c1C(=O)OCc1ccc(C#N)cc1F,6.1,2.8
Cc1nc(CNC(=O)CC2C(=O)NCCN2Cc2ccc(-c3ccccc3)cc2)sc1C (stereo not drawn),3.5,1.1
Cc1ccc(CN(CC(O)COC(C)C)C2CC2)s1 (stereo not drawn),1.3,8.7

Sorted by molecular weight (lowest first): part of the list above
Compound,NPYLR7 ag,NPYLR7 ag max-min
COC(=O)N1C[C@H](Oc2ccccn2)[C@H]2C[C@@H]1CC[C@H]2OC,23.5,31.8
CCCCc1ccc(C(=O)Nc2ccc(N3CCCC3)c(C(=O)NC(C)C)c2)cc1,6.1,3.1
Cc1ccc(C(=O)N2CC(=O)Nc3ccc(F)cc3C2c2ccc(F)cc2)cc1[N+](=O)[O-] (stereo not drawn),-3.2,-5.8
C=CCNC(=O)C(NC(=O)c1cccc(C)c1)C1CCN(S(=O)(=O)c2ccc(Cl)cc2)CC1 (stereo not drawn),-3.6,5.7
COc1ccc(CN(C(=O)c2ccccc2OC)C(C)c2ccccc2)cc1OCc1nc(CO)cs1 (stereo not drawn),13.7,16.2

(continued)
Compound,NPYLR7 ag,NPYLR7 ag max-min
COc1ccc(-c2cc(CN3C(=O)NC(C)(C)C3=O)on2)cc1,0.8,-2.6
COc1ccc(C)cc1NC(=O)c1cc(-c2ccc(C)s2)nc2ccccc12,-1.0,-6.2
COc1cc(CNC(=O)CCCC/C=C/C(C)C)ccc1O,-10.6&-2.2,-15.1&-2.7
CNC(=O)c1cccc(NCC(=O)NCCc2ccc(OC)c(OC)c2)c1,-29.9,-34.7
Cc1ccc(CNC2CCN(S(C)(=O)=O)CC2)cc1C,10.9,7.6
Nc1nnc(SCC(=O)N2CCCC2)s1,-1.5,-3.7
COCCn1c(SCc2cccc(C(=O)OC)c2)nnc1-c1cc(-c2ccccc2)nc2ccccc12,-0.9,8.5
O=C(C1=COCCO1)N(CCN1CCOCC1)c1nc2ccc(F)cc2s1,6.8,2.6
Cc1c(C(=O)NCc2ccccc2C(F)(F)F)sc(=O)n1Cc1ccc(S(=O)(=O)N(C)C)cc1,-0.6,1.1
CCOC(=O)c1c(C)nn(-c2ccc(C(=O)NCCNc3cccc4ccccc34)cc2)c1C,-7.8,-13.2
CS(=O)(=O)Oc1ccc(CN(Cc2ccccc2)C(=O)c2ccccc2F)cc1,-5.4,-0.5
COc1ccc(N=C(C)c2c(C(F)(F)F)[nH]n(-c3nc4ccccc4s3)c2=O)cc1,-2.8,-12.1
CC(C)C(=O)Nc1ccc(C(=O)Nc2sccc2C#N)cc1,4.1,1.6
COc1ccc(OCC2CN(C(=O)c3cc(F)cc4c3OCOC4)CCO2)cc1 (stereo not drawn),13.3,5.9
CCCN(Cc1cc(=O)n(C)c(=O)n1C)C(C)c1ccccc1Br (stereo not drawn),-0.2,8.1
Cc1cc(NC(=O)c2cccs2)n(-c2nc3c(F)cccc3s2)n1,-8.8,-14.3
Cc1ccc(C)c2[nH]c(=O)c(CCNC(=O)c3ccccc3)cc12,1.0,31.4
COc1ccc(-n2ccnc2CN2CCC(O)(Cc3cc(-c4ccccc4)no3)CC2)cc1,14.6,2.8
CCC(=O)Nc1ccc(C(C)NC(=O)N2CC3CC=CCC3C2)cc1 (stereo not drawn),11.4,9.6
Nc1nccnc1C(=O)N(CCc1cccc(F)c1)C1CCCC1,-24.0,-23.5
CC(C)CCSc1nc2c(c(=O)[nH]c(=O)n2C)n1CCCc1ccccc1,-0.4,32.3
O=S1(=O)CCC(S(=O)(=O)Nc2ccccc2)C1 (stereo not drawn),-1.4,-2.4
CC(OC(=O)c1n[nH]c2ccccc12)C(=O)c1ccc(F)cc1 (stereo not drawn),-4.1,-5.9
Cc1[nH]c(=O)n(C)c(=O)c1CCC(=O)Nc1ccc(C(N)=O)cc1,-6.4,-13.4
O=C(c1cc2ccccc2oc1=O)N1CCN(c2cccc(Cl)c2)CC1,7.0,4.6
Cc1cc(C2CCC2)nc(NCC2CCOC2)n1 (stereo not drawn),6.7,2.5
Cn1c(=S)ccc2ccccc21,-4.9,-12.7
O=C(CSCC(O)CON=C1c2ccccc2-c2ccccc21)Nc1ccccc1 (stereo not drawn),0.5,6.2
Cc1csc(=O)n1CCC(=O)N1CCC(NS(=O)(=O)c2ccc(F)cc2)CC1,9.2,8.6
CCC(C)N(Cc1c(-c2ccc(F)cc2)noc1N1CCOCC1)C(=O)c1ccc(Cl)cc1 (stereo not drawn),5.2,9.7
CCn1cc(C(=O)N2CCN(CC(=O)NCc3ccccc3)CC2)c2nn(-c3ccccc3)c(=O)c-2c1,-3.9,-9.5
CCOC(=O)N1CCN(C(=O)c2ccc(N3CCC(NCCc4cnccn4)CC3)cc2)CC1,-1.2,-1.6
COCCN(Cc1ccc(O)c(Cl)c1)Cc1cnn(C)c1,6.8,17.8
O=C(Nc1ccc(N2CCC(Cc3ccccc3)CC2)c(C(=O)NCc2ccc(F)cc2)c1)Nc1ccccc1F,-1.9,2.0
COc1ccc2cc(CN3CC(C)CC(C)C3)c(Cl)nc2c1 (stereo not drawn),-0.8,-2.7
COc1cc2c(cc1NC(=O)c1ccco1)NC(=O)CC2c1nccs1 (stereo not drawn),8.0,5.2
O=S(=O)(Nc1ccc(-n2cnnn2)cc1)c1cccc(F)c1,2.5,1.0
C=CCNC(=O)NC1CCN(c2ccccc2C(=O)NCC=C)CC1,1.0,9.9
O=C(Nn1cnc2ccccc2c1=O)C1CC(=O)N(CCc2ccccc2)C1 (stereo not drawn),10.6,3.0
COCc1c(Br)c(C)nc(OCC(=O)N/N=C\c2ccc(OC)c(OC)c2)c1C#N,11.4,13.6
CCn1nc(C)cc1C(=O)N1CCCC(Nc2ccc(C(C)C)cc2)C1 (stereo not drawn),-4.8,-6.8
c1ccc(CCC2CCCCN2Cc2cn[nH]c2-c2cc3ccccc3o2)nc1 (stereo not drawn),7.8,8.8
CCN(C(=O)c1ccc(=O)n(C)c1)C(C)Cc1ccc(OC)cc1 (stereo not drawn),6.6,3.2
O=C(NCCc1cnc[nH]1)c1cncn1-c1cccc(-c2cccc3c2sc2ccccc23)c1,2.0,-2.4
COc1cccc(C(=O)N(C)CC(=O)Nc2cc(C(C)(C)C)nn2-c2ccc(C)cc2C)c1,4.3,17.3
COc1ccc(-n2ccn3c(C)nnc3c2=O)cc1Cl,3.9,-6.1
CCc1nn(-c2ccccc2)c(Oc2cccc(F)c2)c1CN(CCOC)CC(O)Cc1ccccc1 (stereo not drawn),5.3,6.8
OCC1CCN(c2nnc(-c3cc(Cl)cc(Cl)c3)s2)CC1,2.6&8.7,-0.3&6.0
CCCC(=O)N1CCCC1(C)C(=O)Nc1ccc(OC(F)F)cc1 (stereo not drawn),-4.8,-3.9
CCCOc1ccc(-c2nonc2NC(=O)C2COc3ccccc3O2)cc1 (stereo not drawn),8.1,3.8

3 of the compounds above, with two lines to a compound:
Screens in order – NPYLR7 ag, NPYLR7 ag max-min
- COc1ccc(-n2ccn3c(C)nnc3c2=O)cc1Cl
 : 3.9, -6.1
- CCc1nn(-c2ccccc2)c(Oc2cccc(F)c2)c1CN(CCOC)CC(O)Cc1ccccc1 (stereo not drawn)
 : 5.3, 6.8
- OCC1CCN(c2nnc(-c3cc(Cl)cc(Cl)c3)s2)CC1
 : 2.6&8.7, -0.3&6.0

(continued)
Compound,NPYLR7 ag,NPYLR7 ag max-min
COC(=O)c1ccc(/C=N\Nc2nc(N3CCOCC3)nc(N3CCOCC3)n2)cc1,-1.2,-8.2
FC(F)Oc1ccc(-c2csc(=Nc3cccnc3)n2N=Cc2ccc3c(c2)OCO3)cc1,0.3,-0.7
CCc1[nH]n(-c2cccc(Cl)c2)c(=O)c1C1=C([n+]2cc(C)cc(C)c2)C(=O)N(c2ccccc2)C1=O,-4.9,4.5
CC(N)=O,1.1,-0.8
Cn1cc(C2CC2C(=O)N2CCN(C3CCCC3O)CC2)cn1 (stereo not drawn),-0.3,0.2
CC(=O)Nc1cc(-c2nc3ncccc3o2)ccc1Cl,8.1,11.8
O=C(CN1CCCCCC1=O)NNC(=O)c1ccc(OC2CCCC2)cc1,1.4,3.2
Oc1ccc(-c2csc(=NCC(F)(F)F)n2N=C2CCCCC2)c(O)c1,0.4,0.0
CN(C)S(=O)(=O)c1ccc2c(c1)/C(=C/c1cc3c([nH]1)CCCC3)C(=O)N2,0.6,-4.1

Compound activity: PubChem BioAssay, Fisher Drug Discovery Resource Center
